PMP22 txn = Cell-based coincidence reporter assay to measure PMP22 gene transcription in S16 Pmp22-F2sN cells - Primary screen; Potency, µM (top dose mostly 57.5 µM), for the others: at the highest dose activity change, negative = inhibition, hits mostly inhibitors; S16 Pmp22-F2sN Schwann cells (luciferase reporters placed in the Pmp22 gene), FLuc/NLuc coincidence luminescence, 24 h; actives 2% (n = 43,000); active = clear falling dose curves in both reporters; inconclusive = both reporters move, but less clearly or upward; inactive = either reporter flat; the % is the NLuc reporter signal; note: % is set by controls: 0 for no effect and ±100 for the full control effect; some results filed as inactive show a strong effect at the top dose
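qHTS, 1536-well. Cells seeded, compounds added by pin tool, 24 h 37C. Nano-Glo reagent 1 (lysis/FLuc), 10 min RT, read; Stop&Glo, 10 min RT, read NLuc.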
HTT promoter inh = Primary qHTS for Identification of Small Molecule Inhibitors of Huntingtin Promoter Activity; HEK293 HTT promoter firefly luciferase reporter (activity 0% = vehicle and -100% = no light), 24 h; Potency, µM (series often up to 57.5 µM), without a hit: at the top dose activity change, negative = inhibition, most hits filed as inhibitors; actives 0.93% (n = 48,000); active = well fitted inhibition curve with a large enough effect; inconclusive = small, poorly fitted or top-dose-only effect; inactive = no such curve, though single readings can be large or run the other way; note: nearly all actives have a fitted effect of over 50% in size
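Luminescence was read after Dual-Glo reagent and a 10 min room-temperature incubation. Values were normalized to vehicle (0% activity) and zero RLU (-100% activity). Reporter HEK293 cells had been exposed to compounds (up to 57.5 uM final) for 24 h.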
An asterisk follows results filed as active; u = inconclusive; x = not tested or not shown; [ ] = another dose, or the depositor's remark. Potency is the fitted concentration of half-maximal effect. An unsorted share of the library; about 2.4% have a hit in one of these screens.

mol,PMP22 txn,HTT promoter inh
COc1ccc(-n2c(=O)c3c4c(sc3n(Cc3ccccc3Cl)c2=O)CCC4)c(OC)c1,1%,-14%
CC1CCN(C(=O)CCS(=O)(=O)c2cc3c(cc2Cl)NC(=O)CO3)CC1,-55%,-6%
O=C(NCCc1ccccc1)c1ccc2c(c1)nc1n2CCOC1,-3%,u
CCCN1C(=O)C(O)(CC(=O)c2ccc(CC)cc2)c2ccccc21 (stereo not given),6%,-19%
CCn1c(CN2CCOCC2)nc2cc(NC(=O)c3cc(OC)c(OC)c(OC)c3)ccc21,20%,-10%
COc1cccc(CCNC(=O)c2cnc3sc(N4CCOCC4)nn3c2=O)c1,-1%,-15%
CCOC(=O)c1cc(-c2ccccc2)n(-c2cccc(C(=O)Nc3cccc(SC)c3)c2)c1C,-8%,-21%
COc1ccc(-c2cc(C(F)(F)F)c(C#N)c(SCC(=O)Nc3ccccc3F)n2)cc1,1%,-7%
Cc1ccc(-c2ccc(CCC(=O)O)n2-c2ccc(C(C)C)cc2)cc1,u,14%
Cc1cccc(NC(=O)C(=O)NCC(c2cccnc2)N2CCc3ccccc32)c1C (stereo not given),u,u
Cn1c(=NC(=O)c2ccc(S(=O)(=O)N3CCCc4ccccc43)cc2)sc2cc(F)ccc21,-1%,-22%
CCOc1ccc(-c2nnc(SCC(=O)NCCC(C)C)nc2-c2ccc(OCC)c(OC)c2)cc1OC,-60%,-24%
O=c1c(O)c(-c2ccc(O)cc2O)oc2cc(O)cc(O)c12,x,1%
O=C(Cc1ccccc1)Nc1cccc(-c2nc3cccnc3s2)c1,-15%,3%
O=C(O)c1ccc(NS(=O)(=O)c2ccc(Cl)c(C(=O)Nc3ccccc3)c2)cc1,1%,-1%
CCOC(=O)Cn1c(=O)n(-c2cccc(Cl)c2)c2nc(-c3ccccc3Cl)nc(C(N)=O)c21,-10%,-23%
Cc1ccc(NC(=O)CSc2nc(-c3ccco3)cc(C(F)(F)F)n2)c(C)c1,u,-16%
CCc1ccc(S(=O)(=O)Nc2cc3c(cc2C)n(C)c(=O)c(=O)n3C)cc1,u,-21%
CCc1cccc(C)c1NC(=O)C(CC)n1ncn2c(cc3cc(C)ccc32)c1=O (stereo not given),u,-13%
COc1cccc(N2CCN(S(=O)(=O)c3ccc4c(c3)CCCN4C(C)=O)CC2)c1,-21%,u
CCc1ccc(NC(=O)CSC2=Nc3ccccc3C3=NC(CCC(=O)NCCc4ccccc4)C(=O)N23)cc1 (stereo not given),-1%,u
Cc1cccc(NC(=O)Cn2c(=O)n(Cc3ccccc3)c(=O)c3oc4ccccc4c32)c1C,u,-7%
CCOC(=O)c1cc(-c2ccccc2)nn1Cc1ccccc1,-5%,73%[activator]
CCCC(=O)N(c1ccc2oc3c(c2c1)CCCC3)S(=O)(=O)c1cc(C)ccc1C,-7%,-12%

Given with values under each structure: part of the list above
Results follow in this order: PMP22 txn	HTT promoter inh
> COc1ccc(-n2c(=O)c3c4c(sc3n(Cc3ccccc3Cl)c2=O)CCC4)c(OC)c1
→ 1%	-14%
> CC1CCN(C(=O)CCS(=O)(=O)c2cc3c(cc2Cl)NC(=O)CO3)CC1
→ -55%	-6%
> O=C(NCCc1ccccc1)c1ccc2c(c1)nc1n2CCOC1
→ -3%	u
> CCCN1C(=O)C(O)(CC(=O)c2ccc(CC)cc2)c2ccccc21 (stereo not given)
→ 6%	-19%
> CCn1c(CN2CCOCC2)nc2cc(NC(=O)c3cc(OC)c(OC)c(OC)c3)ccc21
→ 20%	-10%
> COc1cccc(CCNC(=O)c2cnc3sc(N4CCOCC4)nn3c2=O)c1
→ -1%	-15%
> CCOC(=O)c1cc(-c2ccccc2)n(-c2cccc(C(=O)Nc3cccc(SC)c3)c2)c1C
→ -8%	-21%
> COc1ccc(-c2cc(C(F)(F)F)c(C#N)c(SCC(=O)Nc3ccccc3F)n2)cc1
→ 1%	-7%
> Cc1ccc(-c2ccc(CCC(=O)O)n2-c2ccc(C(C)C)cc2)cc1
→ u	14%
> Cc1cccc(NC(=O)C(=O)NCC(c2cccnc2)N2CCc3ccccc32)c1C (stereo not given)
→ u	u
> Cn1c(=NC(=O)c2ccc(S(=O)(=O)N3CCCc4ccccc43)cc2)sc2cc(F)ccc21
→ -1%	-22%
> CCOc1ccc(-c2nnc(SCC(=O)NCCC(C)C)nc2-c2ccc(OCC)c(OC)c2)cc1OC
→ -60%	-24%
> O=c1c(O)c(-c2ccc(O)cc2O)oc2cc(O)cc(O)c12
→ x	1%
> O=C(Cc1ccccc1)Nc1cccc(-c2nc3cccnc3s2)c1
→ -15%	3%
> O=C(O)c1ccc(NS(=O)(=O)c2ccc(Cl)c(C(=O)Nc3ccccc3)c2)cc1
→ 1%	-1%
> CCOC(=O)Cn1c(=O)n(-c2cccc(Cl)c2)c2nc(-c3ccccc3Cl)nc(C(N)=O)c21
→ -10%	-23%
> Cc1ccc(NC(=O)CSc2nc(-c3ccco3)cc(C(F)(F)F)n2)c(C)c1
→ u	-16%
> CCc1ccc(S(=O)(=O)Nc2cc3c(cc2C)n(C)c(=O)c(=O)n3C)cc1
→ u	-21%
> CCc1cccc(C)c1NC(=O)C(CC)n1ncn2c(cc3cc(C)ccc32)c1=O (stereo not given)
→ u	-13%
> COc1cccc(N2CCN(S(=O)(=O)c3ccc4c(c3)CCCN4C(C)=O)CC2)c1
→ -21%	u
> CCc1ccc(NC(=O)CSC2=Nc3ccccc3C3=NC(CCC(=O)NCCc4ccccc4)C(=O)N23)cc1 (stereo not given)
→ -1%	u

More compounds follow.
mol,PMP22 txn,HTT promoter inh
CCc1ccccc1NC(=O)Cn1ncc2c(C)n(Cc3ccccc3F)c(C)c2c1=O,-13%,-14%
COc1cccc(CNC(=O)C2CCN(c3nc4ccc(Cl)cc4[nH]3)CC2)c1,-18%,-10%
Cc1c(-c2nc(-c3ccccc3)no2)nnn1-c1ccc(F)c(Cl)c1,-20%,44%[activator]
Cn1c(-n2cccc2)c(-c2c(-c3ccccc3)[nH]c3c2c(=O)n(C)c(=O)n3C)c(=O)n(C)c1=O,4%,-4%
CN(C)CCn1c2c(c(SCC(=O)Nc3ccc(F)cc3F)nc1=O)CCC2,-11%,-15%
CC1=C(c2ccc(C(C)C)cc2)S(=O)(=O)NC1=NCc1ccccc1C,u,u
Cc1ccc2oc(-c3ccc(NC(=O)CCC(=O)O)cc3)nc2c1,-3%,18%
Cc1ccc2c(c1)c(=O)c1ccccc1n2CCCC(=O)Nc1c(F)cccc1F,12%,-10%
CCc1ccccc1N(C)C(=O)c1ccc2c(=O)n3c(nc2c1)CCCCC3,-16%,-16%
Cc1cccn2c(=O)cc(COc3cccc(NC(=O)c4cccc(Cl)c4)c3)nc12,u,-1%
CCC(CC)C(=O)N1CCc2cc(OC)c(OC)cc2C1COc1ccc2c(C)cc(=O)oc2c1 (stereo not given),u,-14%
COc1cccc(CNc2nccn(-c3ccc(OC)c(OC)c3)c2=O)c1,-9%,-5%
CN(C(=O)CN(CCO)CC(=O)N(C)C(C)(C)Cc1ccccc1)C(C)(C)Cc1ccccc1,x,-11%
Cc1cc(C)cc(Nc2nc3ccccc3nc2-n2nc(C)cc2C)c1,-1%,-9%
COc1ccc(-c2nc(CSc3nnc(C)n4c3cc3sccc34)c(C)o2)cc1,-21%,-13%
COc1ccc(-c2cnc(C)o2)cc1S(=O)(=O)Nc1cccc(C(F)(F)F)c1,-3%,u
Cc1ccc(C)c(Cn2c(=O)n(CCc3ccccc3)c(=O)c3c(C)c(C)sc32)c1,u,10%
CCc1ccc(-c2cc3c(N4CCN(c5ccccc5)CC4)nccn3n2)cc1,u,-3%
Cc1ccccc1Nc1nn2c(=O)c3ccc(C(=O)NCCc4ccc(Cl)cc4)cc3nc2s1,u,u
CCOc1ccc(C2C(C(=O)Nc3ccccc3)=C(C)Nc3nc(SCc4cccc(OC)c4)nn32)cc1 (stereo not given),-20%,6%
COc1ccc(OC)c(NC(=O)Cn2cc(C(=O)c3ccc(Cl)cc3)c(=O)c3cc(OC)ccc32)c1,u,-20%
Cc1onc(-c2ccccc2Cl)c1C(=O)Oc1ccccc1F,9%,u
COc1cccc(N2CCN(C(=O)c3ccc(Cn4c(=O)[nH]c5cc(OC)c(OC)cc5c4=O)cc3)CC2)c1,u,u
CCc1cnc2c(c1SCC(=O)Nc1cc(Cl)ccc1OC)c(=O)n(C)c(=O)n2C,1%,-16%
COc1ccc(NC(=O)CC2Nc3cccc4cccc(c34)NC2=O)cc1 (stereo not given),u,-19%
COc1ccc(Cl)cc1NC(=O)Cn1nnc(C(=O)NCc2ccc3c(c2)OCO3)c1N,u,u
Cc1cccc(N2CCN(C(=O)Cn3nc(C)c4sc5ccccc5c4c3=O)CC2C)c1 (stereo not given),u,-12%
CCc1ccc(NC(=O)Cn2ncn3c(cc4ccccc43)c2=O)cc1,28%,-1%
O=C(Nc1ccc(O)c(-c2nc3ccccc3o2)c1)c1cccs1,-6%,-10%
CC1=C(c2ccc(C(C)C)cc2)S(=O)(=O)NC1=NCc1ccc(OC(C)C)cc1,-24%,-20%
Cc1ccc(CSCCC(=O)N2CCN(c3ccc(F)cc3)CC2)cc1,-22%,u
CCc1ccccc1NC(=O)CSc1ncccc1C(=O)O,10%,-6%
Cc1ccc(-n2c(=O)c3c(c4cc(C)ccc4n3C)n(CC(=O)NCc3ccccc3)c2=O)cc1,-5%,-6%
Cc1ccccc1Cn1cc(S(=O)(=O)c2ccc(Cl)cc2)c(=O)c2cc3c(cc21)OCO3,-25%,-8%
Cc1cccc(OCC(=O)NCc2ccc3c(c2)CCN3C(=O)c2ccc(Cl)cc2)c1,-29%,-17%
O=C1CC(c2ccccc2)Cc2[nH]c(=O)c(-c3nc(-c4ccc(Cl)cc4)cs3)cc21 (stereo not given),0.75µM*,-34%
COC(=O)c1c(-c2cccs2)csc1NC(=O)COc1ccc(C)cc1,-48%,-12%
CCN(C(=O)c1c(O)c2c(Cl)cccc2n(C)c1=O)c1ccccc1,x,-12%
Cc1ccc(Cl)cc1NS(=O)(=O)c1ccc2c(c1)NC(=O)CCS2,38%,-13%
Cc1ccccc1-c1nc2scc(CCNS(=O)(=O)c3ccccc3)n2n1,u,-37%

Overlap with the part before: 3 entries, then new ones.
mol,PMP22 txn,HTT promoter inh
CCN(C(=O)c1c(O)c2c(Cl)cccc2n(C)c1=O)c1ccccc1,x,-12%
Cc1ccc(Cl)cc1NS(=O)(=O)c1ccc2c(c1)NC(=O)CCS2,38%,-13%
Cc1ccccc1-c1nc2scc(CCNS(=O)(=O)c3ccccc3)n2n1,u,-37%
O=[N+]([O-])c1ccc(S(=O)(=O)N2CCn3cccc3C2c2ccccc2F)cc1 (stereo not given),-10%,-24%
COc1ccccc1N1CCN(C(=O)c2cn(C)c3ccc(S(=O)(=O)N(C)C4CCCCC4)cc3c2=O)CC1,u,-3%[11.5 µM]
Cc1ccc(CCNC(=O)c2cn(C)c3ccc(S(=O)(=O)N(C)C4CCCCC4)cc3c2=O)cc1,2%,1%
Cc1cc(-c2ccc(C)c(S(=O)(=O)NC(c3cccs3)C(C)C)c2)on1 (stereo not given),-22%,-47%
O=C(NC1CCN(Cc2ccccc2)CC1)c1ccc(Cn2c(=O)c3ccccc3n(Cc3ccc(F)cc3)c2=O)cc1,u,-24%
Cc1ccc(NC(=O)Cn2cc3c(n2)CCC(C)C3)cc1C (stereo not given),u,-17%
CCN(CC)c1cc(C)c2cc(NC(=O)c3cccc(F)c3)ccc2n1,u,-4%
O=C(Cn1c(=O)n(Cc2ccccc2)c(=O)c2sc3ccccc3c21)Nc1ccccc1F,-64%,-13%
COc1ccccc1N1CCN(C(=O)CCc2nnc3n(C)c(=O)c4sccc4n23)CC1,2%,-8%
CCc1cccc(NC(=O)COc2cc(=O)n(CC)c3ccccc23)c1,-26%,-28%[11.5 µM]
CCCN(CCC)C(=O)c1c[nH]c2ccc(S(=O)(=O)N(C)c3ccc(Cl)cc3)cc2c1=O,10%,-24%
O=C(CCC1N=C2c3ccccc3N=C(SCc3cccc(F)c3)N2C1=O)NC1CCCCC1 (stereo not given),4%,-9%
COc1ccc(-n2nc(C(=O)Nc3cccc(C(F)(F)F)c3)c3c4ccccc4n(C)c3c2=O)cc1,-25%,-17%
COc1ccccc1CNC(=O)c1cccn1-c1nnc(N2CCCC2)s1,8%,0%
CC(=O)c1ccc(NC(=O)c2cc(S(=O)(=O)N3CCOCC3)ccc2C)cc1,u,-35%
Cc1ccc(CNS(=O)(=O)c2ccc(C(=O)N(C)C)s2)cc1,u,-19%

Screens (PubChem BioAssay)
